# PrP 5UTR inh = suppresses PrP 5' UTR mRNA reporter expression; cell-based PrP 5' UTR mRNA reporter, plate reader; AID 488862; inhibition, % (concentration not given with the values); hit rate 0.35% among 340,000;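 active = every replicate at 50% or more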;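 note: 0 = median of the neutral control wells; tested in H4 reporter cells; numbers are from one replicate; inactives centre near -14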
# Mtb hypoxia inh = Mtb hypoxia fluorescent reporter inhibition | M. tuberculosis hypoxia-regulated fluorescent reporter, fluorescence | fluorescence inhibition, % (test concentration not listed) | hit rate 0.1% among 300,000 | AID 1159583;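 active = 35 to 45% if threefold the growth effect, above 45% if 1.5-fold the growth effect; inactive = the rest, general growth blockers included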;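 note: wells of about 50 µL received 100 nL stock; 0% = vehicle wells and 100% = reference inhibitor wells; whole bacteria with a GFP reporter of the hypoxia response; strong numbers were not always called active; many hits fall short of the cut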
# Sa ugtP lethal = growth inhibition of S. aureus ugtP deletion strain. growth inhibition, % (no concentration beside the values). S. aureus RN4220 ugtP deletion, OD600 growth, 16 h; some inactives read as strong as hits. hit rate 0.54% among 330,000. AID 1259309;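 active = z-score under -3 and OD600 up to 0.15 on both plates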;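 note: plate controls were untreated wells for no effect and antibiotic for full effect; wells of about 80 µL received 100 nL stock; the first replicate is given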
# BJeLR lethal = kills HRASV12-expressing BJeLR cells | BJeLR (HRASV12) viability, CellTiter-Glo ATP luminescence, 48 h; reference of the scale not given here | inhibition, % (no concentration beside the values) | hit rate 0.17% among 300,000;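 active = replicate mean above 50%; inconclusive = above 50% but judged a plate artefact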;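 note: 50 nL library stock added to about 25 µL; numbers are from one replicate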
# Sa RN4220 lethal = S. aureus RN4220 growth inhibition | OD600, 16 h | AID 1259311 | inhibition, % (concentration not given with the values) | hit rate 0.33% among 330,000;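 active = z-score of -3 or lower and OD600 up to 0.18 on both plates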;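 note: plate controls were untreated cells for no effect and reference antibiotic for full effect; stock transfer was 100 nL into about 80 µL; one replicate is shown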
# Autofluor counter = counter-screen for toxin protease inhibitors: compound fluorescence | compound autofluorescence counterscreen, microsphere flow cytometry; active compounds read high | fluorescence intensity (test concentration not listed) | hit rate 3.1% among 360,000;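 active = at least 3 SD above the mean of all compounds, about 16000 in these data; inconclusive = too few beads counted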;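 note: 100 nL of 1 mM stock went into each well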
# Mtb hypoxia inh growth = recorded beside Mtb hypoxia inh, whose call it bears; growth inhibition, %; measured here: M. tuberculosis growth (absorbance);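 0% = vehicle and 100% = reference antibiotic; read after six days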
# Numbers without * were called inactive; ? = inconclusive; nt = not tested or not shown.
mol	BJeLR lethal	Mtb hypoxia inh	Sa RN4220 lethal	Sa ugtP lethal	Autofluor counter	Mtb hypoxia inh growth	PrP 5UTR inh
CCc1ccccc1NC(=O)Nc1ccsc1C(=O)OC	1	11	3.0	1	4312	4	-36
N#Cc1cn(N2CCCCC2)c(=O)[nH]c1=O	-1	3	-0.2	-3	4107	-10	-12
COc1cc(C(=O)NCC(=O)N/N=C/c2cccs2)cc(OC)c1OC	9	nt	nt	nt	2787	nt	-23
COc1ccc(CCNC(=O)CSc2nnc(CNC(=O)c3cc(OC)c(OC)c(OC)c3)o2)cc1OC	-16	0	1.0	4	4314	-6	4
Cc1ccc(CN(C)C(=O)C2CCCN2C(=O)c2cccs2)o1 (stereo not drawn)	6	6	2.7	-10	9308	9	-20
COc1cc2c(-c3ccc4c(c3)OCO4)c(-c3ccsc3)oc(=O)c2cc1OC	nt	8	1.2	-17	4232	10	-13
O=C(NCCN1CCN(c2ccccc2)CC1)C1CCN(S(=O)(=O)N2CCOCC2)CC1	nt	-2	-8.0	-3	2609	8	1
Cc1ccccc1OCc1ccc(C(=O)N2CC(C)OC(C)C2)o1 (stereo not drawn)	-7	8	1.0	5	5286	21	-7
CC(=O)Nc1cccc(C(=O)OC(C(=O)c2ccc(C)cc2)c2ccccc2)c1 (stereo not drawn)	0	2	2.2	24	?	5	-11
O=C1CC(N2CCN(C(c3ccccc3)c3ccccc3)CC2)C(=O)N1Cc1ccc(N2CCCC2=O)cc1 (stereo not drawn)	-14	1	-0.6	-8	5402	11	-5
N#Cc1ccc(OCC(=O)NC2=NCCS2)cc1	16	7	2.9	6	4265	6	-39
CC1=CC(=O)C=C(C)C1=NOC(=O)c1cccc([N+](=O)[O-])c1	-4	nt	7.1	-5	2135	nt	-12

# Reprinted from the part before: 4 entries; new compounds follow.
mol	BJeLR lethal	Mtb hypoxia inh	Sa RN4220 lethal	Sa ugtP lethal	Autofluor counter	Mtb hypoxia inh growth	PrP 5UTR inh
CC(=O)Nc1cccc(C(=O)OC(C(=O)c2ccc(C)cc2)c2ccccc2)c1 (stereo not drawn)	0	2	2.2	24	?	5	-11
O=C1CC(N2CCN(C(c3ccccc3)c3ccccc3)CC2)C(=O)N1Cc1ccc(N2CCCC2=O)cc1 (stereo not drawn)	-14	1	-0.6	-8	5402	11	-5
N#Cc1ccc(OCC(=O)NC2=NCCS2)cc1	16	7	2.9	6	4265	6	-39
CC1=CC(=O)C=C(C)C1=NOC(=O)c1cccc([N+](=O)[O-])c1	-4	nt	7.1	-5	2135	nt	-12
CCOP(=O)(CN(CC)C(=O)c1ccccc1Br)OCC	7	17	4.7	4	5325	8	21
Cc1c(Cl)cnc(NC(=O)CSc2nncs2)c1Cl	-9	-5	0.1	-3	2624	-1	-21
O=C(Cc1ccc(-c2ccccc2)cc1)NC1CCCC1	14	11	0.9	-3	4569	13	-29
CCc1ccc(NC(=O)N(C2CCCCC2)C(C)c2cccnc2)cc1 (stereo not drawn)	-1	4	0.5	4	20168*	5	-17
CCOc1cc(/C=C/C(=O)O)ccc1OCCOc1ccccc1	-7	-6	-1.9	-3	3019	-7	-8
CC1(C)CC2C1CCC1(O)CC2(C)CCC1N(O)c1ccc(C(=O)NCCO)cn1 (stereo not drawn)	nt	6	-8.2	-14	4187	8	-13
COc1ccc(C=NNc2nc(N3CCCC3)nc(N3CCCC3)n2)cc1	nt	7	9.0	6	nt	-3	nt
CCN(CC)CCCOC(=O)c1ccc(OC)cc1O	1	2	1.2	5	4582	-5	-35
CC(=NCc1ccc2c(c1)OCO2)c1c(O)n(Cc2ccccc2)c(=O)[nH]c1=O	-11	-1	4.3	4	?	-3	-22
Cc1oc(/C=N/NC(=O)CN(c2ccccc2Br)S(C)(=O)=O)cc1Br	-2	nt	nt	nt	2391	nt	-2
Cc1c(Br)c([N+](=O)[O-])nn1CC(=O)NCc1ccccc1	7	14	7.1	1	4151	8	-10
O=C(Nc1nc(-c2cc(Cl)sc2Cl)cs1)c1cccs1	7	-6	26	19	nt	0	-46
CC(C)N(Cc1nc(-c2ccc(Cl)cc2)no1)C(=O)C(c1ccccc1)c1ccccc1	5	3	-3.2	-23	15639	1	0
NC(=O)c1ccccc1NC(=O)CS(=O)(=O)Cc1ccccc1	20	5	-0.4	1	4586	10	10
O=C1CC(=O)N(c2cccc(Br)c2)C(=O)N1	-18	-5	-0.6	-5	3790	-9	-7
Cc1nn(C)c(C(=O)NNC(=S)NC2CCCCC2)c1Br	-4	-6	4.6	5	6588	0	-11
Cc1ccc(OCCC(=O)Nc2ccc(F)c(F)c2)cc1	-16	1	-1.6	-14	2155	0	-4
CCCCCCOc1ccc(/C(N)=N/O)cc1	-1	22	-11	13	3225	-11	-75
CCOC(=O)c1sc(NC(=O)c2ccccc2)cc1C	10	8	4.8	-2	5552	13	-52
N#Cc1ccsc1NC(=O)CN1C(=O)NC2(CCCC2)C1=O	4	nt	nt	nt	5494	nt	-28
COCCNC(=O)CSc1nc2ccccc2c(=O)n1CCC(=O)NCCc1ccc(OC)c(OC)c1	3	5	1.3	6	4183	2	-25
O=C(NCCCSc1ccccc1)c1cc(Br)ccc1O	-6	8	83*	81	5712	2	-29
CCC1(C)NC(=O)N(CC(=O)Nc2sc3c(c2C(=O)OC)CCCCC3)C1=O (stereo not drawn)	3	4	3.5	-16	1985	7	-5
COc1ccc(CN2CCN(Cc3cccc4nonc34)CC2CCO)c(C)c1C (stereo not drawn)	5	6	5.9	7	3986	-1	-25
CCOC(=O)c1cnc(SCC)[nH]c1=O	1	nt	11	0	2602	nt	3
Cn1c(=O)c(=O)n(C)c2cc(S(=O)(=O)N3CCOCC3)ccc21	4	0	6.3	1	8069	2	-14
COc1ccc(Cl)cc1C(=O)NNC(=O)CSc1nnc2ccccn12	-10	4	1.0	2	3336	-9	-15
Fc1ccc(C=NNc2nccnc2Cl)cc1	nt	1	2.5	4	nt	5	nt
CCOC(=O)N1CCN(S(=O)(=O)CCNC(=O)c2ccc(OC)cc2)CC1	-1	10	0.7	4	?	6	-10
CCOC(=O)c1c(C)n(C)c2c(C)cc(O)c(OC(C)=O)c12	3	nt	1.6	5	4753	nt	-7
COc1cccc(CNc2nc3nc(C)cc(=O)n3[nH]2)c1	0	7	2.9	3	3204	10	-15
COc1ccc(S(=O)(=O)N2CCN(CC(=O)Nc3ccccc3Cl)CC2)cc1	9	-3	3.2	-4	5852	0	-15
C=CCNC(=S)NN=C1CCCCCCC1	5	1	8.8	2	4410	8	-17
Cc1cc(O)c2c(CN3CCN(Cc4ccccc4)CC3)cc(=O)oc2c1	-1	1	2.1	3	3681	0	-33
COc1ccc(NS(=O)(=O)c2ccc3nc(COc4ccc5ccccc5c4)[nH]c3c2)cc1	-1	-3	-14	-16	2643	5	-16
S=c1[nH]cnc2sc(Nc3ccccc3)nc12	0	nt	nt	nt	3418	nt	-21
O=C1C=CN2CCCCC2CC1 (stereo not drawn)	nt	4	2.9	8	5100	4	-14
COc1cccc(NC(=O)CSc2nc3ccsc3c(=O)n2-c2ccc(C(=O)O)cc2)c1	2	4	5.9	-4	4519	5	-33
O=C(COC(=O)CCSc1ccc(Cl)cc1)NCc1ccco1	-2	-5	2.3	-1	4013	-11	-26
CC(C)Cn1c(N)c(C(=O)CSc2ccc3c(c2)OCCO3)c(=O)n(C)c1=O	13	9	4.9	3	4090	3	-16
Cc1ccc(-n2c(SCC(=O)Nc3ccc(N4CCOCC4)cc3)nc3ccccc3c2=O)cc1	-10	-5	5.0	-1	2132	9	-7
COc1cc(OC)c2c(-c3ccccc3)cc(=O)oc2c1C(CCN1CCCCC1)c1ccc2c(c1)OCO2 (stereo not drawn)	16	12	-9.8	-4	4242	15	0
O=C(COc1ccccc1)NCCc1cnc[nH]1	-6	16	4.6	2	4040	9	-6
O=C(Nc1ccc(N2CCN(C(=O)c3cccs3)CC2)c(Cl)c1)c1ccco1	6	2	2.4	30	16928*	5	-18
COc1ccccc1-c1nnc(SCC(=O)O)n1-c1ccc(C)cc1	-4	1	3.4	3	4692	8	-16
COc1cc(C(=O)Nc2c(C(=O)N3CCOCC3)oc3ccccc23)cc(OC)c1OC	-2	-4	4.3	0	5167	-4	-16
CCn1c(SC(C)C(=O)NCC2CCCO2)nc2ccccc21 (stereo not drawn)	nt	5	4.1	6	4396	0	-17
CC1CCN(c2ccc([N+](=O)[O-])cc2C(=O)N2CCOCC2)CC1	5	1	-2.5	-5	4338	-2	2
c1cc2c(nn1)CCc1nonc1-2	0	nt	-1.3	4	4696	nt	-2
COc1ccc(NC(=O)N(C)C[C@H]2Oc3c(NC(=O)Nc4ccccc4)cccc3C(=O)N([C@H](C)CO)C[C@@H]2C)cc1	nt	2	-16	-3	3855	16	-10
COc1ccccc1CN1CCN(C(=O)c2ccncc2)CC1	14	5	9.4	3	2210	3	-17
CCOc1ccccc1NC(=O)Cc1coc2ccc(C)cc12	1	2	-4.9	3	3802	0	48
CCCCC(=O)N=c1sc2cc(S(C)(=O)=O)ccc2n1C	6	7	5.2	10	2587	3	-13
COc1ccc(N(C)C(=O)c2onc3c2CCCC3)cc1	4	4	1.5	-3	2545	1	-15
O=C(O)c1cccc(Nc2ccc3nonc3c2[N+](=O)[O-])c1	6	-3	-1.8	8	4013	0	-11
CCCCCCn1nc(C(=O)N(CCOC)c2c(N)n(CCCC)c(=O)[nH]c2=O)c2ccccc2c1=O	0	-3	-2.0	-2	4217	9	-4
COc1ccc(CCNc2cc(C)nc3c(-c4ccccc4OC)cnn23)cc1OC	4	2	4.5	-1	3824	10	-8
N/C(=N\OC(=O)c1cccc(F)c1)c1ccccc1	-7	8	9.1	-1	7460	4	-95
Cc1cc(Cl)c(OCCCSc2nc(C)cc(=O)[nH]2)c(Br)c1	-12	7	18	2	15921	2	-10
CC(C)(Oc1ccc(Cl)cc1)C(=O)NN=Cc1cn[nH]c1-c1ccccc1	nt	6	5.1	-6	nt	4	nt

# Following part.
mol	BJeLR lethal	Mtb hypoxia inh	Sa RN4220 lethal	Sa ugtP lethal	Autofluor counter	Mtb hypoxia inh growth	PrP 5UTR inh
COc1ccc(S(=O)(=O)N2CCN(Cc3ccc(OC)c(OC)c3)CC2)cc1	10	4	-2.2	1	3690	-4	-14
O=C(NNC(=O)c1ccc([N+](=O)[O-])cc1)c1ccncc1	11	8	7.7	2	2032	9	-23
Cc1cc([N+](=O)[O-])c(C)cc1-c1ccc(/C=N/NC(=O)c2cccnc2)o1	7	nt	nt	nt	4323	nt	-13
Cn1cc(Br)c(C(=O)NNC(=O)Cc2ccc(Cl)cc2)n1	-5	-2	-1.3	3	3674	-2	-26
CCOc1ccc(CCN2CN(C3CCCCC3)CNC2=S)cc1OCC	-15	10	4.1	2	4502	10	1
Cc1cc(C(=O)OCC(=O)Nc2ccccc2C(F)(F)F)on1	nt	10	5.7	10	2977	7	-1
COc1cc(C=N/N=C2/NC(=O)C(CC(=O)O)S2)ccc1OCc1cccc(Cl)c1 (stereo not drawn)	nt	12	4.2	3	nt	6	nt
Fc1ccc(OCc2nnc(SCCN3CCOCC3)o2)cc1	6	nt	-1.0	-8	4050	nt	-9
CN(Cc1ccco1)C(=O)c1ccc(CNS(=O)(=O)c2ccc3c(c2)C(C)(C)C(=O)N3C)cc1	1	7	5.9	16	4313	6	-19
S=C(NCCC1=CCCCC1)NCc1ccco1	3	-8	-2.1	-6	4225	5	-49
CC(=NNC(=O)COc1ccc(C#N)cc1)c1ccc(N2CCOCC2)cc1	nt	3	2.2	2	nt	4	nt
O=C1Nc2ccccc2/C1=C/c1ccccc1Cl	4	14	12	7	3642	8	nt
O=C(Nc1cccc(Cl)c1)N1N=CCC1c1ccccc1 (stereo not drawn)	1	7	-2.0	7	3160	-9	nt
CCCC(=O)Nc1nn(C)c2nc3ccc(C)cc3cc12	7	3	6.3	10	3898	4	-32
Cn1ncc(C#N)c1NC(=O)C1CC(c2c(F)cccc2Cl)=NO1 (stereo not drawn)	9	12	-1.3	-5	8087	11	-25

# Source: PubChem (several laboratories)
